High-throughput results (PubChem BioAssay)
PKD1 kinase inh: inhibitors of human PKD1 kinase, biochemical, fluorescence polarization | Serine/threonine-protein kinase D1 (Homo sapiens), Q15139 | PKD1 kinase fluorescence polarization assay | inhibition, %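 (about 10 µM by stock and volumes)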 | 0.056% of 200,000 active | AID 797, 2007;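 active means inhibition of 50% or more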;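 further: controls were vehicle for no effect and a reference inhibitor for full effect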
RGS16-Gao HTS: modulators of RGS16 binding to Galphao, primary screen, biochemical, human proteins, multiplexed bead flow cytometry | AID 1441, 2008 | binding response (% of control), % at 10 µM | bead-based flow cytometry RGS16-Galphao binding, fluorescence; actives lie on both sides | Regulator of G-protein signaling 16 (Homo sapiens) + Guanine nucleotide-binding protein … | 0.38% of 220,000 active;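 active means below 25% or above 175%, edge rows of some plates excepted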;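 further: Galphao activated by GDP with aluminum fluoride before binding; 100% = wells without compound and 0% = beads without RGS; some results beyond the cut were filed as inactive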
Target sequence (O15492 whole entry, looked up): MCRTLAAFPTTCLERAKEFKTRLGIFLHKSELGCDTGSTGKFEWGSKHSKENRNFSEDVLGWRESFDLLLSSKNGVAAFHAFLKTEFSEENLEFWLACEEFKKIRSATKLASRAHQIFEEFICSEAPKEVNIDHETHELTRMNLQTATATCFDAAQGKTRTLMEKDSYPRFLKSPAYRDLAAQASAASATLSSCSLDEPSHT
Target sequence (P09471 whole entry, looked up): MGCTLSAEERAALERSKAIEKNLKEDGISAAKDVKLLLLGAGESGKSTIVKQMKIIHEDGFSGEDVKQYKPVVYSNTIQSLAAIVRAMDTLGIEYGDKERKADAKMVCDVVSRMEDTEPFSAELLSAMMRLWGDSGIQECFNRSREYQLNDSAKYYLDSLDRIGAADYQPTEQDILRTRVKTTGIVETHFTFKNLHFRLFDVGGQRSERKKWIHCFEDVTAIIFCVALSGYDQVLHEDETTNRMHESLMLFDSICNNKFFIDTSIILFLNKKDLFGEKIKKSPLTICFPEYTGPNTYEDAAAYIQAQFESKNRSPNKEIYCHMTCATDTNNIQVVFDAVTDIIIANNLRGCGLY
GALR2 agonist: GALR2 receptor agonists, primary screen, cell-based | activation, %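 (tested at 5 µM)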 | 0.48% of 140,000 active | GALR2-expressing cells, agonist activation read-out | Galanin receptor type 2 (Homo sapiens), O43603 | AID 803, 2007;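 active means above mean plus 3 SD of all compounds, about 5% in these data, not always enough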;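 further: 0% = vehicle buffer wells and 100% = reference agonist at full effect; tested in CHO reporter cells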
Target sequence (O43603 whole entry, looked up): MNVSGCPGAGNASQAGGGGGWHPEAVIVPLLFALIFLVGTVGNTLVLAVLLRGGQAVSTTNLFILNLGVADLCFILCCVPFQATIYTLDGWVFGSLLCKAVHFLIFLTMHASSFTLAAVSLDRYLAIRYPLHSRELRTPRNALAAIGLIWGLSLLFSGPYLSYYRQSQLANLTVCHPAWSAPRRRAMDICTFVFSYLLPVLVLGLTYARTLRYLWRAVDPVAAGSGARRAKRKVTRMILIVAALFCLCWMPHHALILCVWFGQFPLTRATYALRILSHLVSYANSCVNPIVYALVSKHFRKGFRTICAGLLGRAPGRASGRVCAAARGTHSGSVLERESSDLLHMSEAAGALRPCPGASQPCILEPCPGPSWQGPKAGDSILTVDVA
HSV replic up: enhancers of HSV replication in host cells, fold increase, host cell viability. AID 1956, 2009. maximum fold increase. HSV replication augmentation in cells. 0.005% of 220,000 active;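 active means peak rise of 1.5-fold or more in the series; inconclusive means self-fluorescent or not available for retest; tested in PC3 cells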;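 further: first round at 10 µM; read as green reporter fluorescence; hits show the peak of a series up to 25 µM; 1 = signal of infected wells without compound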
INS promoter inh: inhibitors of insulin promoter-driven GFP, primary screen, imaging, TRM-6 cells (human fetal islet line), eGFP reporter, cell count | reporter expression induced with tamoxifen | inhibition, % at 2 µM | 0.9% of 130,000 active | AID 1273, 2008;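 active means inhibition above the mean plus 3 SD, with well images judged a real hit on visual review, cut at about 60% in these data, passing the limit was not always enough; inconclusive means inhibition over the cutoff but images rejected on review; inactive means inhibition not above the cutoff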
INS promoter inh cell count: recorded beside INS promoter inh, whose call it bears; normalized cell count, %; measured here: cell count, toxicity; reference of the scale not given here;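 cells exposed to compound for 48 h; stained nuclei by imaging scaled within each plate; lower means fewer cells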
HSV replic up primary fold: recorded beside HSV replic up, whose call it bears; fold increase; compound at 10 µM; measured here: primary screen fold increase 10 uM; tested in PC3 cells;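 GFP signal in the first replicate; 1 = infected wells without compound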
* hit, by the source's call; i = inactive; ? = inconclusive; nt = not tested or not shown. Outcome played no part in choosing rows, and some 1.1% of all compounds hit somewhere here.

SMILES	PKD1 kinase inh	RGS16-Gao HTS	GALR2 agonist	HSV replic up	HSV replic up primary fold	INS promoter inh	INS promoter inh cell count
Cc1ccccc1-c1nnc(SCC(=O)Nc2ccc3c(c2)OCCO3)n1N	5	33	-1.2	i	0.85	-55	85
COc1ccc(OC)c(N(CC(=O)O)S(=O)(=O)c2ccc(OC)c(OC)c2)c1	-1	101	-1.5	i	0.98	nt	nt
Cc1ccc(N=Nc2c(O)c3ccccc3[nH]c2=O)c(S(=O)(=O)N(C)C)c1	nt	101	nt	i	0.96	nt	nt
CCN(CC)CCn1c2ccccc2c2nc3ccc([N+](=O)[O-])cc3cc21	nt	92	nt	i	0.71	nt	nt
Cc1noc(NS(=O)(=O)c2ccc(NC(=O)c3ccoc3C)cc2)c1C	-4	102	-2.3	i	1	16	156
CCCc1nnc(SCC(=O)N2CCOCC2)n1C	-13	106	-1.6	i	0.88	-153	77
COc1cc2cc(Oc3ccc4ccc(=O)oc4c3)c(=O)oc2cc1OC1OC(COC(=O)CC(C)(O)CC(=O)O)C(O)C(O)C1O (stereo unspecified)	-3	100	-1.7	i	1.1	-10	75
COc1ccc(N2C(=O)CSC2c2cccc(F)c2)c(OC)c1 (stereo unspecified)	-1	106	-1.0	i	0.82	nt	nt
Cc1nnc(SCc2c(Cl)cccc2Cl)s1	2	99	1.6	i	0.88	-5	84
O=C(NC(=O)c1cccc(F)c1)OC[C@@H]1CCCN2CCCC[C@H]12	-1	100	-0.1	i	0.96	nt	nt
COc1ccc(OC)c(N(CC(=O)Nc2cccnc2)S(=O)(=O)c2ccccc2)c1	2	98	-0.8	i	0.92	34	85
O=C1OCCC1N1C(=O)c2ccccc2S1(=O)=O (stereo unspecified)	-5	77	-2.0	i	0.93	-39	87

A draw from above in order of SMILES length, low to high:
SMILES	PKD1 kinase inh	RGS16-Gao HTS	GALR2 agonist	HSV replic up	HSV replic up primary fold	INS promoter inh	INS promoter inh cell count
Cc1nnc(SCc2c(Cl)cccc2Cl)s1	2	99	1.6	i	0.88	-5	84
O=C1OCCC1N1C(=O)c2ccccc2S1(=O)=O (stereo unspecified)	-5	77	-2.0	i	0.93	-39	87
O=C(NC(=O)c1cccc(F)c1)OC[C@@H]1CCCN2CCCC[C@H]12	-1	100	-0.1	i	0.96	nt	nt

New compounds follow
SMILES	PKD1 kinase inh	RGS16-Gao HTS	GALR2 agonist	HSV replic up	HSV replic up primary fold	INS promoter inh	INS promoter inh cell count
Cc1ccc(OCC(=O)N2CCN(C(=O)c3cccc(F)c3)CC2)cc1	-2	104	nt	i	1.1	-426	100
CCOc1cccc(C(=O)Nc2cccc(C(=O)NCC(C)C)c2)c1	-3	103	-0.2	i	0.79	63	100
CCn1c(SCC(N)=O)nc2c1c(=O)n(C)c(=O)n2C	-6	101	-0.8	i	0.87	41	110
O=C(NCCN1C(=O)C2C3C=CC(C3)C2C1=O)Nc1ccc(Br)cc1 (stereo unspecified)	7	105	-3.1	i	0.97	nt	nt
CCC(=O)Nc1c(C#N)c2nc3ccccc3nc2n1-c1ccccc1C	-5	97	1.1	i	1.1	4	104
O=C(COC(=O)c1cn(-c2ccccc2)nc1-c1cccs1)NC1CC1	-10	102	-0.7	i	0.94	8	126
CCN(C(=O)COc1ncnc2sccc12)c1ccccc1	13	85	nt	i	0.92	45	178
O=C(OCn1ncc(Br)c(Br)c1=O)c1ccccc1Cl	0	100	-3.2	i	0.58	nt	nt
CC1CCc2nn(CC(=O)NCCN3CCOCC3)cc2C1 (stereo unspecified)	-11	101	-1.0	i	1.1	nt	nt
Cc1ccc(/C=N/NC(=O)CN2CCN(S(=O)(=O)c3ccc(Br)cc3)CC2)s1	-12	99	-1.1	nt	nt	nt	nt
Cc1ccc(C2NC(=O)c3c(sc(C)c3C)N2)c(O)c1 (stereo unspecified)	1	98	-3.1	i	0.9	-19	102
COc1ccc2c(c1)OC13CCCCC1C2C(C(=O)c1ccccc1)C(=O)N3 (stereo unspecified)	-8	105	-4.7	i	0.95	nt	nt
C=CCN(N=Nc1cccc([N+](=O)[O-])c1)c1cccc([N+](=O)[O-])c1	-3	110	1.0	i	0.89	nt	nt
O=C(NCCCn1ccnc1)c1nn2c(C(F)(F)F)cc(-c3ccc(Br)cc3)nc2c1Cl	-4	107	1.3	i	0.84	25	149
Cc1cccc(NC(=O)c2cccnc2)c1	4	97	-1.8	i	0.88	10	98
C=C(C)C(=O)Nc1ccc(OC(F)(F)C(F)F)c(NC(=O)C(=C)C)c1	-8	97	-2.0	i	0.96	22	172
COc1ccc2[nH]cc(CCN=C3SCC(=O)N3C)c2c1	-2	100	0.6	i	1.1	nt	nt
Cc1ccccc1OCC(=O)NNC(=O)CCN1C(=O)c2ccccc2C1=O	3	117	nt	i	0.99	-14	64
COc1ccc(Nc2ccc(S(=O)(=O)N3CCCCC3)cc2[N+](=O)[O-])cc1	-2	66	-0.7	i	1	nt	nt
CC(C)(C)NC(=O)N1CCn2cccc2C1c1ccccc1F (stereo unspecified)	-6	102	nt	i	0.94	-8	172
S=c1[nH]nc(-c2cccc(Cl)c2)n1/N=C/c1ccco1	nt	104	nt	i	1	nt	nt
CCOc1ccc(C(=O)Nc2cccc(C(C)=O)c2)cc1[N+](=O)[O-]	-1	110	nt	i	0.87	-93	105
COc1ccc(C2/C(=C(/O)c3ccccc3)C(=O)C(=O)N2CCO)cc1 (stereo unspecified)	14	105	-1.9	nt	nt	67	97
CCOC(=O)c1nnn(-c2nc(N(C)C)nc(N(C)C)n2)c1C	1	99	nt	i	0.89	nt	nt
CCn1c(SCC(=O)Nc2ccc3c(c2)OCO3)nc2ccccc21	6	108	-2.1	i	1.2	-50	137
N#Cc1ccccc1NC(=O)C1CC(=O)N(c2ccc3c4c(cccc24)CC3)C1 (stereo unspecified)	-11	111	-0.6	i	1.1	-7	110
CC1=CC(=C2C(=O)c3ccccc3C2=O)C=C(C)N1C	-2	106	-1.4	nt	nt	-100	54
O=C(O)Cc1ccc(NS(=O)(=O)c2ccccc2Cl)cc1	-4	114	nt	i	0.99	nt	nt
CNS(=O)(=O)c1cccc(C(=O)OCC(=O)NCc2ccccc2)c1	6	95	-1.7	i	0.9	0	86
COCCNc1nc(-c2cc(C)n(CCc3ccc(OC)cc3)c2C)cs1	6	96	nt	i	1.1	10	75
C#CC(C)(C)NC(=O)CSc1nc2c(c(=O)n(C)c(=O)n2C)n1CCCC	-28	103	-0.7	i	1.1	nt	nt
CCN(CCNC(=O)CS(=O)(=O)Cc1nc(-c2cccc(OC)c2)oc1C)c1ccccc1	8	100	-1.5	i	0.84	24	114
CC1=NN(c2cccc([N+](=O)[O-])c2)C(=O)C1	-4	107	nt	i	1.1	nt	nt
CC(C)N(C(=O)NC(=O)NCC1CCCO1)S(C)(=O)=O (stereo unspecified)	4	100	0.2	i	0.76	nt	nt
COc1cccc(-n2c(CN3CCN(c4ccc(C)cc4)C(C)C3)nc3ccc([N+](=O)[O-])cc3c2=O)c1 (stereo unspecified)	0	101	0.4	i	0.92	38	142
COc1ccc(OCCCC(=O)Nc2nnc(C3CCCO3)s2)cc1 (stereo unspecified)	-3	100	-1.1	i	1.1	16	108
O=C(O)CNS(=O)(=O)c1cccc(Cl)c1	nt	102	nt	i	0.91	nt	nt
O=C(NCCc1c[nH]c2ccccc12)Nc1cccc2ccccc12	-5	105	-0.6	i	1	-10	131
COc1cccc(CN2CCNC(=O)C2CC(=O)NCCOc2cccnc2)c1OC (stereo unspecified)	-6	99	nt	i	0.94	nt	nt
NC(C(=O)O)C(c1ccccc1)C(F)F (stereo unspecified)	nt	99	nt	i	1	nt	nt
COc1ccc(OC)c(/C=N/NC(=O)CC2C(=O)NN=C2C)c1 (stereo unspecified)	-1	99	-0.2	i	0.98	63	67
CCOC(=O)N1CCN(C(=O)C2CCC(CNS(=O)(=O)c3ccccc3)CC2)CC1 (stereo unspecified)	-3	107	-0.3	i	0.91	nt	nt
O=C(Nc1nncs1)c1cccc(S(=O)(=O)N2CCCC2)c1	6	100	-3.3	i	0.89	70	75
COc1ccc(C(O)(c2ccccc2OC)C(CN2CCOCC2)c2ccccc2)cc1 (stereo unspecified)	-1	106	nt	i	0.92	nt	nt
Cc1cc(C)c(S(=O)(=O)N(CC(=O)N2CCOCC2)C2CCCCC2)c(C)c1	1	100	-1.9	i	0.94	-31	99
Cc1ccc(-n2c(SCC(=O)Nc3cc(C)on3)nc3c([nH]c4ccccc43)c2=O)cc1	-4	101	2.3	nt	nt	nt	nt
O=C(Nc1ccccc1)c1ccc(NCCc2ccccc2)c([N+](=O)[O-])c1	-18	109	-1.3	nt	nt	nt	nt
CC(=O)C1=C(c2ccccc2)NC(=O)NC1c1ccccc1OCC#N (stereo unspecified)	2	102	-1.1	i	0.93	-14	116
COc1cc(S(=O)(=O)N2CCCCCC2)ccc1Cl	4	96	-3.0	i	0.91	-44	62
COCCn1nnnc1SCC(=O)Nc1ccc2c(c1)OCO2	-1	107	nt	i	0.97	-7	84
Cc1nc(C(F)(F)F)c(C(=O)N/N=C(\N)c2ccccn2)s1	6	101	nt	i	1	-27	67
COc1ccc(-n2c(O)c(/C=N/NS(=O)(=O)c3cc(C)ccc3C)c3ccccc3c2=O)cc1OC	-10	105	-1.0	?	nt	-75	93
CCC(=O)Nc1ccc(NC(=O)CSc2nc3cc4c(cc3cc2C)CCC4)cc1	3	105	-0.6	i	0.99	19	143
CC(C)c1ccc(Nc2nnc(SC3CCOC3=O)s2)cc1 (stereo unspecified)	-10	94	-1.6	i	0.77	19	77
CC(=O)N=C1SC2CS(=O)(=O)CC2N1c1c(Cl)cccc1Cl (stereo unspecified)	8	102	-0.5	i	0.84	-21	75
COc1cc(-c2nnc(SCC(=O)Nc3ccc4c(c3)OCCO4)o2)cc(OC)c1OC	-9	102	-2.5	i	0.97	44	131
O=c1[nH]ncc(N2CCCCCC2)c1Cl	-4	101	nt	i	0.92	nt	nt
COc1ccc(CCN2C(=O)C3C4C=CC(C5CC45)C3C2=O)cc1OC (stereo unspecified)	-7	102	nt	i	1	nt	nt
Cc1ccc(NC(=O)c2ccc(CNS(=O)(=O)c3cccc(C(F)(F)F)c3)cc2)cc1	2	105	-1.3	i	0.93	-22	116
COc1cc(Br)cc2cc(C(=O)N3CCN(c4ccccn4)CC3)c(=O)oc12	-1	102	-2.1	i	0.8	21	128

Continued (five carried over from the part before).
SMILES	PKD1 kinase inh	RGS16-Gao HTS	GALR2 agonist	HSV replic up	HSV replic up primary fold	INS promoter inh	INS promoter inh cell count
COc1cc(-c2nnc(SCC(=O)Nc3ccc4c(c3)OCCO4)o2)cc(OC)c1OC	-9	102	-2.5	i	0.97	44	131
O=c1[nH]ncc(N2CCCCCC2)c1Cl	-4	101	nt	i	0.92	nt	nt
COc1ccc(CCN2C(=O)C3C4C=CC(C5CC45)C3C2=O)cc1OC (stereo unspecified)	-7	102	nt	i	1	nt	nt
Cc1ccc(NC(=O)c2ccc(CNS(=O)(=O)c3cccc(C(F)(F)F)c3)cc2)cc1	2	105	-1.3	i	0.93	-22	116
COc1cc(Br)cc2cc(C(=O)N3CCN(c4ccccn4)CC3)c(=O)oc12	-1	102	-2.1	i	0.8	21	128
COc1ccccc1/C=C/C(=O)Nc1cccc(C(C)=O)c1	-6	100	nt	i	1.1	12	96
CCOc1ccc(/C=C(\C(=O)O)c2ccc(S(=O)(=O)N3CCOCC3)s2)cc1OC	0	106	0.3	i	0.91	23	103
COc1ccc(CC(=O)Nc2cc(=O)n(C)c(=O)n2C)cc1	5	106	-1.6	i	0.9	nt	nt
CC(C)CC(=O)NC(NC(=S)Nc1ccccc1)C(Cl)(Cl)Cl (stereo unspecified)	4	50	nt	i	1	33	64
CCOc1ccc(/C=C(/NC(=O)c2ccccc2Cl)C(=O)O)cc1	1	103	nt	i	0.97	0	115
C=CCn1c(SCC(=O)NCc2cccs2)nnc1C1CCCCC1	-8	104	-1.7	i	0.97	-55	95
O=C(CSc1ncn[nH]1)Nc1ccnc2ccccc12	-2	103	-2.6	i	0.95	nt	nt
COC(=O)CSc1ccc2c(N)c(C(=O)OC)sc2c1	-8	72	-1.6	i	0.73	19	110
CCC(C)NC(=O)COc1ccc(Br)c(C)c1 (stereo unspecified)	0	103	-1.8	i	1.1	17	47
COc1ccc(-n2c(C)cc(C(=O)COC(=O)Cc3n[nH]c(=O)c4ccccc34)c2C)cc1	-8	96	-2.0	nt	nt	23	71
Cc1nc(C(=O)NC2CC2)sc1C1(C)CC(c2ccccc2)=NO1 (stereo unspecified)	nt	103	nt	i	0.93	nt	nt
